Assay outcomes from PubChem BioAssay.
Insulin prom inh – TRM-6 insulin promoter activity inhibition | TRM-6 cells (human fetal islet line), insulin promoter-eGFP reporter, imaging; reporter expression induced with tamoxifen | inhibition, % at 2 µM | 130,000 compounds, 0.9% hits;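 active means inhibition above the mean plus 3 SD, with well images judged a real hit on visual review, cut at about 60% in these data, passing the limit was not always enough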
HSV replic up – increases HSV replication in cells; HSV replication augmentation in cells, fold increase; maximum fold increase; 220,000 compounds, 0.005% hits; AID 1956;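 active means peak rise of 1.5-fold or more in the series; tested in PC3 cells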;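 further: first round at 10 µM; read as green reporter fluorescence; hits show the peak of a series up to 25 µM; 1 = signal of infected wells without compound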
GALR2 agonist – activates the human galanin receptor 2 | GALR2-expressing cells, agonist activation read-out | 140,000 compounds, 0.48% hits | AID 803 | O43603 | activation, %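 (tested at 5 µM)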;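 active means above mean plus 3 SD of all compounds, about 5% in these data, not always enough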;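 further: 0% = vehicle buffer wells and 100% = reference agonist at full effect; tested in CHO reporter cells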
Target sequence (O43603 whole entry, looked up): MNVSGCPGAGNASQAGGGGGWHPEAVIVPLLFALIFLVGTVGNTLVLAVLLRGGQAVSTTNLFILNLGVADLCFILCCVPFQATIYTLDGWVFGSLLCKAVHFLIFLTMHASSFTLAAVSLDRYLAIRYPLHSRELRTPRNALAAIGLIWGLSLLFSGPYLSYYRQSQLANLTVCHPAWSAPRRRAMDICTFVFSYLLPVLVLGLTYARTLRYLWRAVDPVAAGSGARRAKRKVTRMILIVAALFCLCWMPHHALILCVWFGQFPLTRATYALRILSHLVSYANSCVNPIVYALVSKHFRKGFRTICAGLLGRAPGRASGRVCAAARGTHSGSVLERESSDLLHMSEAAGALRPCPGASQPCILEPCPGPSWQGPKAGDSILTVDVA
RGS16-Gao – RGS16-Galphao interaction regulator (human); O15492+P09471; bead-based flow cytometry RGS16-Galphao binding, fluorescence; actives lie on both sides; 220,000 compounds, 0.38% hits; binding response (% of control), % at 10 µM;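 active means below 25% or above 175%, edge rows of some plates excepted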;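 further: Galphao activated by GDP with aluminum fluoride before binding; 100% = wells without compound and 0% = beads without RGS; some results beyond the cut were filed as inactive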
Target sequence (O15492 whole entry, looked up): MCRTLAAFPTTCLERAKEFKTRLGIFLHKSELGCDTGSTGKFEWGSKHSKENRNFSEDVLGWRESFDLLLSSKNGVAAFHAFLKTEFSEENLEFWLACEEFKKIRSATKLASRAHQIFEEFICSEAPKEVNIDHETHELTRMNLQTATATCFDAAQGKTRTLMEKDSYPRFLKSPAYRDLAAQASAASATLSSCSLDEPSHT
Target sequence (P09471 whole entry, looked up): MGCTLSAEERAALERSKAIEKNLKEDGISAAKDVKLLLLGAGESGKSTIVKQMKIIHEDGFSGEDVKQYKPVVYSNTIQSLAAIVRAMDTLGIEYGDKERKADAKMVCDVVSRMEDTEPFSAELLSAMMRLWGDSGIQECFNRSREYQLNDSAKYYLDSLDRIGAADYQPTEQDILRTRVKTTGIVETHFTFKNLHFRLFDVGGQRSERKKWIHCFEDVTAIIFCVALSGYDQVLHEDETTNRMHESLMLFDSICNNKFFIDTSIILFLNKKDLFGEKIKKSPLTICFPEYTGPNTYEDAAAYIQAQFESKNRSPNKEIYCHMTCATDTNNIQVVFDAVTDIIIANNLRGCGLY
PKD1 kinase inh – PKD1 (human) kinase inhibition; inhibition, %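 (about 10 µM by stock and volumes)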; Q15139; 200,000 compounds, 0.056% hits; PKD1 kinase fluorescence polarization assay;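 active means inhibition of 50% or more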;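 further: controls were vehicle for no effect and a reference inhibitor for full effect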
Insulin prom inh cell count – also measured in Insulin prom inh; calls as there; normalized cell count, %; measured here: cell count, toxicity; reference of the scale not given here;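 cells exposed to compound for 48 h; stained nuclei by imaging scaled within each plate; lower means fewer cells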
HSV replic up primary fold – second read-out of HSV replic up, no call of its own (marks repeat the call); fold increase; compound at 10 µM; measured here: primary screen fold increase 10 uM; tested in PC3 cells;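 GFP signal in the first replicate; 1 = infected wells without compound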
* = called active by the depositor; i = inactive; . = no result given. An unsorted share of the library (roughly 1.3% active in at least one column).

SMILES | Insulin prom inh | Insulin prom inh cell count | HSV replic up | HSV replic up primary fold | GALR2 agonist | RGS16-Gao | PKD1 kinase inh
COCCCN(C(=S)Nc1ccc(OC)cc1)C(C)c1ccncc1 (centres undefined) | . | . | i | 0.98 | . | 101 | 5
COCCNC(=O)CCC(=O)NNc1nc2ccccc2c2nc(-c3ccccc3)nn12 | -21 | 114 | i | 0.97 | . | 91 | -7
CCOC(=O)N1CCC(NC(=O)c2cc(C(=O)NC3CCN(Cc4ccccc4)CC3)ccc2CO)CC1 | 31 | 123 | i | 0.97 | . | 102 | 5
Cc1ccc(N2CCC(N3CCN(C4CCCCC4)C(CCO)C3)CC2)cc1 (centres undefined) | . | . | i | 0.95 | . | 101 | -10
COc1ccc([N+](=O)[O-])cc1NC(=O)CCN1CCN(CCO)CC1 | 7 | 98 | i | 0.89 | -1.6 | 96 | 2
c1cnc2ccc(C(c3nnnn3C3CCCCC3)N3CCN(C4CCCCC4)CC3)cc2c1 (centres undefined) | 60 | 152 | i | 0.94 | -0.8 | . | -7
C(=N\n1cncn1)/c1ccc(N2CCOCC2)cc1 | . | . | i | 1.1 | -2.0 | 91 | 1
O=C(NC(=S)Nc1nc2ccccc2s1)c1ccco1 | -41 | 109 | i | 1.1 | -1.2 | 100 | -8
CC(=O)N1CSCC1C(=O)NNS(=O)(=O)c1ccccc1 (centres undefined) | . | . | i | 1.1 | . | 96 | .
COc1ccc(S(=O)(=O)NCCSc2ccccc2)cc1OC | 0 | 47 | i | 0.96 | -2.7 | 99 | 0
Cc1ccc(-c2ccc(S(=O)(=O)NCC3CCCO3)cc2)cc1 (centres undefined) | . | . | i | 0.93 | . | 101 | -8
COc1ccc(-c2cn(/N=C/c3ccc(Cl)cc3Cl)c(N)n2)cc1 | -6 | 101 | i | 0.79 | -1.1 | 96 | 0
Cc1c(NC(=O)c2ccc(N(C)S(C)(=O)=O)cc2)c(=O)n(-c2ccccc2)n1C | . | . | i | 1 | . | 101 | 7
Cc1ccc(-c2noc(C3CCN(C(=O)Nc4ccc(C#N)cc4)CC3)n2)o1 | . | . | i | 0.91 | -1.2 | 94 | -3
COc1ccc(C(=O)NN(c2ccccc2)c2ccccc2)cc1 | 29 | 79 | i | 0.91 | -0.5 | 108 | -15
CCOC(=O)N1CCN(C(=O)c2noc(C(C)C)c2[N+](=O)[O-])CC1 | 35 | 104 | i | 1 | -1.9 | 80 | -10
Cc1ccc(C)c(CN2C(=O)C3CCCN3c3ccc(C#N)cc32)c1 (centres undefined) | -9 | 139 | i | 0.96 | 0.9 | 96 | 1
CCOC(=O)Nc1c(O)ccc2oc(C)c(-c3ccccc3)c12 | 12 | 90 | i | 0.96 | 0.2 | 167 | -9
COc1ccc(C(=O)/C=C/Nc2ccc([N+](=O)[O-])cc2C)c(OC)c1 | 22 | 92 | i | 0.86 | -0.6 | 61 | -4
OC(COC(c1ccccc1)c1ccccc1)CN1CCc2ccccc2C1 (centres undefined) | -47 | 117 | i | 1.1 | 0.4 | 102 | -3
C=CCn1c(SCc2cc(=O)n3cc(C)ccc3n2)nnc1-c1ccc(F)cc1 | . | . | i | 1.1 | -0.6 | 98 | -8
COc1ccc(C2(C(=O)NC3CCCCC3)CCOCC2)cc1OC | -40 | 81 | i | 0.87 | -1.0 | 94 | -6
O=C(CSCc1ccccc1)Nc1ccc(F)c(F)c1 | . | . | i | 0.99 | -2.0 | 96 | -4
COC(=O)c1nc(N)sc1C(C)C | 0 | 124 | i | 0.96 | . | 100 | 10

Structural class: the entries above containing an aryl thioether with sulfur outside any ring (two)
SMILES | Insulin prom inh | Insulin prom inh cell count | HSV replic up | HSV replic up primary fold | GALR2 agonist | RGS16-Gao | PKD1 kinase inh
COc1ccc(S(=O)(=O)NCCSc2ccccc2)cc1OC | 0 | 47 | i | 0.96 | -2.7 | 99 | 0
C=CCn1c(SCc2cc(=O)n3cc(C)ccc3n2)nnc1-c1ccc(F)cc1 | . | . | i | 1.1 | -0.6 | 98 | -8

Remaining list, next part.
SMILES | Insulin prom inh | Insulin prom inh cell count | HSV replic up | HSV replic up primary fold | GALR2 agonist | RGS16-Gao | PKD1 kinase inh
CCn1c(CCNC(=O)c2ccc(F)cc2)nc2ccccc21 | . | . | i | 0.96 | -2.6 | 101 | -4
CSc1nnc(-c2cccc(C)c2)n1N | 23 | 65 | i | 1.1 | -1.4 | 100 | -1
COc1cc(/C=N/NC(=O)C(Cc2c[nH]c3ccccc23)NC(=O)OCC(C)C)cc([N+](=O)[O-])c1O (centres undefined) | 0 | 88 | i | 0.87 | -0.6 | 122 | -13
CCOC(=O)C1(Cc2ccc(OC)cc2)CCN(S(C)(=O)=O)CC1 | . | . | i | 0.9 | . | 105 | -3
Cc1ccc(-c2nnc(SCC(=O)N/N=C/c3cccs3)n2-c2ccc(C)cc2)cc1 | . | . | i | 1 | 0.5 | 109 | -4
CC(=O)Nc1sc2c(c1C#N)CCCC2 | 6 | 91 | i | 0.98 | -0.2 | 100 | -2
O=C(COC(=O)c1ccc(NS(=O)(=O)c2cccs2)cc1O)Nc1nc2ccccc2s1 | . | . | i | 1 | . | 102 | 1
Cc1[nH]n(C2=NCCS2)c(=O)c1N=Nc1cccc(C(F)(F)F)c1 | -124 | 72 | i | 0.79 | . | 99 | 8
CCC(Sc1nc(C)cc(=O)[nH]1)C(=O)Nc1nc2c(s1)CCCC2 (centres undefined) | 19 | 88 | i | 0.76 | -1.2 | 109 | -14
CSc1nnc(C(C)c2ncc(C(F)(F)F)cc2Cl)n1C (centres undefined) | 54 | 105 | i | 0.86 | . | 94 | -5
O=C(O)c1[nH]c2ccccc2c1NS(=O)(=O)Cc1ccccc1 | 29 | 110 | i | 0.94 | -3.1 | 89 | -5
COCCCN(C(=O)Nc1ccccc1)C(C)c1ccncc1 (centres undefined) | . | . | i | 0.88 | -1.2 | 103 | -6

By substructure, those above containing a Cl atom.
SMILES | Insulin prom inh | Insulin prom inh cell count | HSV replic up | HSV replic up primary fold | GALR2 agonist | RGS16-Gao | PKD1 kinase inh
COc1ccc(-c2cn(/N=C/c3ccc(Cl)cc3Cl)c(N)n2)cc1 | -6 | 101 | i | 0.79 | -1.1 | 96 | 0
CSc1nnc(C(C)c2ncc(C(F)(F)F)cc2Cl)n1C (centres undefined) | 54 | 105 | i | 0.86 | . | 94 | -5

Continued:
SMILES | Insulin prom inh | Insulin prom inh cell count | HSV replic up | HSV replic up primary fold | GALR2 agonist | RGS16-Gao | PKD1 kinase inh
Fc1ccc(C(c2nnnn2Cc2ccco2)N2CCN(C3CCCCC3)CC2)cc1 (centres undefined) | -89 | 76 | i | 0.91 | -2.4 | 107 | -5
Cc1cc(NC(=O)CSc2nc(-c3ccccc3)nc3c2c(=O)n(C)c(=O)n3C)no1 | . | . | . | . | . | 99 | 3
C=CCn1c(C(C)NC(=O)COC)nc2ccccc21 (centres undefined) | -20 | 104 | i | 0.85 | -1.2 | 103 | -7
O=C(NC1CCCCC1)C(c1ccccn1)N(C(=O)Cc1cccs1)c1ccc(Cl)cc1 (centres undefined) | -78 | 95 | i | 0.91 | -0.7 | 103 | -8
COc1nc(-c2ccc(Cl)cc2)nnc1C | . | . | i | 0.89 | . | 107 | -2
Cc1cccn2cc(CCNS(=O)(=O)c3ccc([N+](=O)[O-])cc3)nc12 | -14 | 103 | i | 1.1 | -2.1 | . | -5
O=C(CSc1nc2ncccc2[nH]1)Nc1ccc2c(c1)OCCO2 | 48 | 114 | i | 0.98 | -2.6 | 50 | -17
COc1ccc(-c2ccc(C(=O)O)c(=O)[nH]2)cc1 | 8 | 122 | i | 0.92 | . | 101 | -3
Cn1cnnc1SCC(=O)Nc1nc(-c2ccccc2)cs1 | 21 | 100 | i | 1.1 | . | 100 | -1
O=C1NC(=O)C2C1C(c1ccc([N+](=O)[O-])cc1)=NN2Cc1ccccc1 (centres undefined) | . | . | i | 0.9 | . | 101 | 4
Cc1ccccc1Cc1c(C)nc2c(C(=O)NCc3ccc4c(c3)OCO4)cnn2c1C | 0 | 38 | i | 0.82 | -1.6 | 108 | -3
O=C(CN1CCC(n2nnc3cc(F)ccc32)CC1)NCCc1nc2ccccc2[nH]1 | -31 | 156 | i | 1.1 | -0.4 | 101 | 15
CC(=O)Nc1cccc(-c2nc3ccc(NC(C)=O)cc3s2)c1 | . | . | i | 0.87 | . | 91 | 3
Cc1ccc(OCCn2cc(/C=N/NC(=O)c3ccncc3)c3ccccc32)cc1 | 4 | 128 | i | 0.83 | -0.2 | 102 | -3
CCCCCCCCNc1ncnc2ccccc12 | 53 | 152 | i | 0.9 | -1.3 | 124 | 0
CCOC(=O)N1CCN(C(=O)c2ccc(Cl)nc2)CC1 | . | . | i | 0.86 | . | 95 | .
CC1=Nc2cc(C(=O)NCC3CCCO3)ccc2Sc2ccc(Br)cc21 (centres undefined) | . | . | i | 0.73 | . | 91 | .
Nc1cc(N)cc(-c2nc3ccccc3[nH]2)c1 | . | . | i | 1.2 | -2.9 | 71 | -21
CCOc1ccc(N=C2NC(=O)/C(=C/C(=O)OC)S2)cc1 | 17 | 139 | i | 0.96 | -1.3 | 104 | -5
Cc1ccc(S(=O)(=O)N(C)c2cc(S(=O)(=O)Nc3ccncc3)c(C)cc2C)cc1 | -78 | 89 | i | 0.95 | -1.0 | 100 | 1
CCN(CC)c1nc(N(CC)CC)[nH]c(=O)n1 | -144 | 98 | i | 1 | -2.5 | . | 2
CC1CCCCC1n1c(-c2cccnc2)n[nH]c1=S (centres undefined) | . | . | i | 0.98 | . | 89 | -8
CCOC(=O)C1CCCN(C(=O)Cn2cccc2C(=O)c2ccccc2)C1 (centres undefined) | -43 | 106 | i | 0.98 | -0.6 | 103 | 0
COc1cc(NS(=O)(=O)c2ccc3c(c2)oc(=O)n3C)cc(OC)c1OC | . | . | i | 0.98 | -2.0 | 102 | 10
Cc1oc2c(c1C(=O)NCc1ccccc1)CCCC2 | -62 | 68 | i | 1.1 | -2.4 | 107 | -1
COc1ccc(O)c(C(=O)c2cc(C#N)c(=O)n(CC3CCCO3)c2)c1 (centres undefined) | -41 | 245 | i | 1 | -2.7 | 96 | -4
O=C(O)c1nccnc1C(=O)N1CCN(c2ccccc2)CC1 | 8 | 61 | i | 0.95 | -0.2 | 109 | -6
Cc1cnn(CCC(=O)NNC(=S)Nc2ccccc2)c1 | -27 | 93 | i | 0.93 | 1.1 | 157 | 0
COCCn1nnnc1C(c1cccc(C(F)(F)F)c1)N1CCN(Cc2ccccc2)CC1 (centres undefined) | 8 | 108 | i | 1.1 | -0.9 | 103 | -3
COC(=O)Nc1ccc(S(=O)(=O)N2CCCC(C(=O)N3CCN(C)CC3)C2)cc1 (centres undefined) | . | . | i | 1 | . | 100 | .
CCCCCCCSc1nc(N)cc(=O)[nH]1 | 28 | 73 | . | . | -1.5 | 106 | -7
C1CN(c2nc(N3CCOCC3)nc(N3CCOCC3)n2)CCO1 | . | . | i | 1 | . | 109 | .
COC(=O)c1ccc(COc2ccccc2/C=C(\C#N)C(=O)Nc2c(C)cc(C)cc2C)cc1 | . | . | i | 0.78 | -1.4 | 78 | 11
O=c1[nH]c2ccccc2nc1/C=C/c1ccc(Cl)cc1 | 67 | 128 | i | 0.87 | . | . | -6
O=C(CCCOc1ccc(Cl)cc1Cl)NCCCO | . | . | i | 0.83 | -0.6 | 102 | 2
Cc1cc(C)cc(NC(=S)N2CCN(CCO)CC2)c1 | -7 | 110 | i | 0.93 | -0.8 | 111 | -4

An excerpt from above in order of the GALR2 agonist value, largest number first:
smiles | GALR2 agonist
O=C(CCCOc1ccc(Cl)cc1Cl)NCCCO | -0.6
CCCCCCCSc1nc(N)cc(=O)[nH]1 | -1.5
Cc1oc2c(c1C(=O)NCc1ccccc1)CCCC2 | -2.4

Going on with the list:
SMILES | Insulin prom inh | Insulin prom inh cell count | HSV replic up | HSV replic up primary fold | GALR2 agonist | RGS16-Gao | PKD1 kinase inh
COC(=O)c1ccccc1NC(=O)c1cc(OC)cc(OC)c1 | -17 | 115 | i | 1 | -0.1 | 99 | 3
Cc1ccccc1NC(=O)c1ccc(Nc2c([N+](=O)[O-])cc([N+](=O)[O-])c3ccccc23)cc1 | . | . | i | 0.94 | -3.7 | 99 | -2
COc1cc(Br)cc(C2C3=C(CCCC3=O)N(c3ccc(F)cc3)C3=C2C(=O)CCC3)c1O | . | . | i | 0.74 | . | 102 | -8
O=S(=O)(N1CCCCCC1)N1CCN(S(=O)(=O)N2CCCCC2)CC1 | -22 | 110 | i | 0.93 | -1.9 | 100 | -8
CCOc1ccc(-c2nc(N)ncc2-c2ccc(OC)cc2)c(O)c1 | 21 | 100 | i | 0.77 | -1.8 | 108 | -9
CCOC(=O)C1(CCc2ccccc2)CCN(C(=O)CCn2cnnn2)CC1 | . | . | i | 1.1 | . | 107 | 12
Cc1cccc(N(CC(=O)N2CCN(c3ccc(F)cc3)CC2)S(C)(=O)=O)c1C | . | . | i | 0.94 | . | 107 | 2
